High-throughput results deposited in PubChem BioAssay by Johns Hopkins Ion Channel Center.
KCNQ2 pot = potentiators of rat KCNQ2 potassium channel. Potassium voltage-gated channel subfamily KQT member 2 (Rattus norvegicus), O88943. CHO-K1 KCNQ2, FluxOR thallium flux fluorescence; active compounds read high. B-score at 10 µM. 310,000 compounds, 0.54% hits. AID 2239, 2010;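 active means fluorescence ratio B-score at least 3 SD of library B-scores, with initial fluorescence B-score within 3 SD, cut at about 5.3 in these data; same plate scores as AID 2156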;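 further: B-score of peak minus minimum over baseline fluorescence ratio after K+ and Tl+ stimulus; positive B-score means potentiation of KCNQ2 with more thallium influx and brighter signal; only the inactives scoring about 0 or higher are listed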
Target sequence (O88943 whole entry, looked up): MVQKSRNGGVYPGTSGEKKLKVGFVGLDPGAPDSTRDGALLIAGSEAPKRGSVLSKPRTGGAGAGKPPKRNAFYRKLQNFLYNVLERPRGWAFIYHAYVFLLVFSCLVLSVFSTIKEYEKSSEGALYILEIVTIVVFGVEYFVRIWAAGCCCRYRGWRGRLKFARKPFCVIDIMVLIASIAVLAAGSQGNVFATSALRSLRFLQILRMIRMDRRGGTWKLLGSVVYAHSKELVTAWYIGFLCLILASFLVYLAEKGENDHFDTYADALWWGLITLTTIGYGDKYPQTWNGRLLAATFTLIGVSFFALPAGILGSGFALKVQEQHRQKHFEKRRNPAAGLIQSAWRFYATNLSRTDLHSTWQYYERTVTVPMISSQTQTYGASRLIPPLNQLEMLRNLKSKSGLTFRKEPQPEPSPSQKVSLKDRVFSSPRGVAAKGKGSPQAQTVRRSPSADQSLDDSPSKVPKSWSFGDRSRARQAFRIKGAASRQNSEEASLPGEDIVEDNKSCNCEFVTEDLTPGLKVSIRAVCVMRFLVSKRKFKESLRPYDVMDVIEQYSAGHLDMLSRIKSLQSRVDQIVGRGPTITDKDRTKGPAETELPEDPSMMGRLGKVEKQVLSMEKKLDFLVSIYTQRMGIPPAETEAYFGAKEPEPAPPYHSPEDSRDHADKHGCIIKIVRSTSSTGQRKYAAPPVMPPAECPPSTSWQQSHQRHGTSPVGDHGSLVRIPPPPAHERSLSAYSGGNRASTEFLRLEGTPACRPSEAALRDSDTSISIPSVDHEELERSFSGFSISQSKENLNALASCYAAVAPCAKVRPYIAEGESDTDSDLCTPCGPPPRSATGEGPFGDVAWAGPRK
KCNQ2 pot baseline = recorded beside KCNQ2 pot, whose call it bears; B-score; compound at 10 µM; measured here: initial fluorescence intensity artifact check;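 brightness before thallium and not channel activity; 0 = typical well and far values either way flag optical interference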
Numbers without * were called inactive.

KCNQ2 pot	KCNQ2 pot baseline	structure
1.4	-0.81	CS(=O)(=O)N1CCc2ccc(NC(=O)C3CCCO3)cc2C1 (stereo not given)
0.07	1.7	Cc1cc(N2C(=O)CC(C(C)c3ccccc3)C2=O)no1 (stereo not given)
1.3	-2.1	COc1cccc(SCc2noc(C(=O)NCC3CCCO3)c2C(=O)O)c1 (stereo not given)
0.2	2.1	CN(CCOc1ccccc1)CC(=O)Nc1ccc(Cl)c(S(=O)(=O)N(C)C)c1
0.25	0.32	Cc1ccc(C(=O)C[n+]2cccc3ccccc32)cc1
0.06	1.2	Cc1cc(Nc2ccccc2F)n2nc(C)nc2n1
0.14	-0.06	COc1ccc(CCNS(=O)(=O)c2ccc(Br)cc2)cc1
1.1	-0.86	O=C(O)c1ccc(N2C(=O)CC(N3C(=O)/C(=C/c4ccc(Cl)cc4)SC3=S)C2=O)cc1 (stereo not given)
0.16	-1.3	Cc1sc(NC(=O)CN2CCCC2)nc1-c1ccc2c(c1)CCN2C(=O)c1ccc(F)cc1
0.42	-0.52	COc1ccc(CN2C(=O)c3cccnc3C2=O)cc1S(=O)(=O)N1CCOc2ccc(Cl)cc21
2.2	-0.4	NC(=O)C1(N2CCCCC2)CCN(C(=O)c2cccs2)CC1
1.3	0.48	CN(C)S(=O)(=O)Nc1cccc(-c2cn3c(n2)SCC3)c1
0.38	1.4	Cc1ccc(C)c(OCC(O)CN2CCC(C)CC2)c1C (stereo not given)
0.77	0.15	COc1ccc(-c2noc(CCCC(=O)NC3CCCCC3)n2)cc1
0.56	2.5	O=C(CSc1nnc(NC(=O)C2CC2)s1)Nc1cccc(F)c1
0.49	1.6	COc1ccc(CCNC(=O)c2cccs2)cc1
0.84	-2	Cc1sc2nc(C3CC3)nc(SCC(=O)N3CC(=O)Nc4ccccc43)c2c1C
0.5	0.9	CC(C)(C)c1ccc(OCC(=O)N/N=C/c2ccc(N3CCOCC3)cc2)cc1
1.3	1.2	CCn1c(COc2cccc(OC)c2)nnc1SCC(=O)N1CCOCC1
1.1	0.39	O=C(Nc1cc(Cl)cc(Cl)c1)C1CCCC1
0.03	0.85	CC(=O)c1cc(CN2CCC(N3CCC(C(=O)N4CCCC4)CC3)CC2)cs1
1.6	0.33	Cc1ccc(OCc2cc(C(=O)NC3CCCCC3)no2)cn1
0.75	0.05	CCOC(=O)c1nn(-c2ccccc2)c2nnc(Cc3ccc(C)cc3)c(=O)n12
0.03	0.74	O=C(NCCS(=O)(=O)N1CCN(c2cccc(Cl)c2)CC1)C1CCCC1
0.68	-0.35	CNC(=S)NNC(=O)c1cc(-c2cccnc2)nc2ccccc12
0.02	0.43	CCOc1ccc(-n2c(=S)sc3c(=O)n(-c4ccc(F)cc4)c(SCC(=O)O)nc32)cc1
0.84	1.1	Cc1ccc(NC(=S)N2CCC(N(C)CC3CCCO3)CC2)cc1C (stereo not given)
0.25	-0.87	COc1ccc(Cl)c2sc(N3CCN(C(=O)c4ccco4)CC3)nc12
0.23	-0.18	COc1cc(/C=C(/C#N)c2ccccc2F)ccc1OCc1ccccc1
1.3	-0.63	O=C(COC(=O)CCCSc1nc2ccccc2[nH]1)Nc1ccc(Oc2ccccc2)cc1
0.03	-1.2	COc1ccc([C@H]2C=C(C(=O)O)O[C@@H](OCCCCO)C2)cc1
0.78	-1.1	CCCCNc1ccc(C(CC(N)=O)NC(=O)Cc2ccc(Br)cc2)cc1[N+](=O)[O-] (stereo not given)
2.5	-0.04	Cc1ccc(NC(=O)CN(C)C(=O)c2ccccc2Sc2ccccc2C#N)cc1
0.75	0.09	Cc1cccc(C(=O)Nc2onc(C)c2C#N)c1
0.05	-2.2	O=C(C1CC(=O)N(C2CCCCC2)C1)N1CCN(c2ccccc2)CC1 (stereo not given)
0.79	-0.7	Cc1ccc(S(=O)(=O)N(CC(=O)N/N=C/c2cccc(Cl)c2)c2cccc3cccnc23)cc1
0.06	-0.23	OCCC1CN(Cc2ccc(F)cc2Cl)CCN1CCc1ccccc1 (stereo not given)
0.4	-1.1	COc1ccc(/C=C(/Sc2nnc(-c3ccc(Cl)cc3)o2)C(=O)O)cc1
1.1	0.15	COc1ccc(C2C(C(N)=O)=C(C)Nc3nc(-c4cccc(Cl)c4)nn32)cc1OC (stereo not given)
1.5	0.37	COC(=O)c1ccccc1NC(=O)CCCn1nc([N+](=O)[O-])cc1C
1.1	-0.12	COc1ccc(Oc2nc(-c3ccccc3)ncc2C(=O)O)cc1
1.4	-0.88	COc1ccc(C2=NOC(C(=O)NCc3ccccc3)C2)cc1 (stereo not given)
1.1	0.08	CC(C)Oc1ccc(CNC(=O)CCC(=O)N2CCSc3ccccc32)cc1
0.01	0.04	Cc1ccc2nc(-c3ccc(NC(=O)C(C)N4C(=O)c5ccccc5C4=O)cc3)sc2c1 (stereo not given)
0.44	2.3	Cc1cc(C)n(CC(=O)c2cccc(N)c2)n1
0.99	0.26	COCCCNC(=O)C(F)(F)C(F)(F)C(=O)NCCCOC
0.02	0.94	COC(=O)c1ccc(C(=O)OC)c(NC(=S)N2CCC(N3CCCCC3)CC2)c1
2.6	-1.4	Cc1nc(C(=O)N2CCCC(C(=O)c3ccc(Cl)cc3)C2)cs1 (stereo not given)
4.2	-1.2	CCOC(=O)c1sc(NC(=O)c2ccc(OC(C)=O)cc2)nc1C
0.23	-2	CCOC(=O)/C(C#N)=C\c1cccnc1
1.3	-0.3	N#Cc1ccccc1CSc1ccccn1
0.36	0.52	O=C(C1CCC(CNS(=O)(=O)c2cccs2)CC1)N1CCN(c2ccc(F)cc2)CC1 (stereo not given)
1.6	0.2	Fc1ccc(N/N=C/c2ccncc2)c(F)c1
0.7	-0.22	COc1cccc(NC(=S)N2CCN(C)CC2)c1
3.4	0.92	CCOC(=O)CNS(=O)(=O)c1ccc2c3c(cccc13)C(=O)N2CC
1.8	-3.2	CCCNc1c(NS(=O)(=O)c2ccc(C)cc2C)c(=O)oc2ccccc12
0.7	0.67	C/C(=N\NC(=O)c1ccn(C)n1)c1cccc(NC(=O)c2ccncc2)c1
0.81	-0.37	Cc1ccc(N2C(=O)N(CC(=O)Nc3ccc(C)cc3Cl)C(=O)C2C)cc1 (stereo not given)
0.24	1.2	Cc1csc(NC(=O)c2ccc(N3CCCC3=O)cc2)n1
0.58	-1.9	Cc1occc1C(=O)NNC(=O)C1CCCC1

The final 4 compounds of the part before are carried over, then new ones follow:
KCNQ2 pot	KCNQ2 pot baseline	structure
0.7	0.67	C/C(=N\NC(=O)c1ccn(C)n1)c1cccc(NC(=O)c2ccncc2)c1
0.81	-0.37	Cc1ccc(N2C(=O)N(CC(=O)Nc3ccc(C)cc3Cl)C(=O)C2C)cc1 (stereo not given)
0.24	1.2	Cc1csc(NC(=O)c2ccc(N3CCCC3=O)cc2)n1
0.58	-1.9	Cc1occc1C(=O)NNC(=O)C1CCCC1
0.46	2.4	CCC(=O)c1ccc(OCC(=O)OCC(=O)N2CCCc3ccccc32)cc1
1.2	-0.47	CC1CCN(C(=O)N[C@@H](Cc2ccccc2)C(=O)O)CC1
1.5	-0.39	Cn1c(SCC(N)=O)nnc1-c1ccc(S(=O)(=O)N2CCCC2)cc1
0.59	0.09	COC(=O)c1ccc(CO/N=C2\CCCc3nonc32)cc1
0.05	1.9	CCC(=O)Nc1ccc(C(=O)CSc2nc3ccc(C)cc3[nH]2)cc1
1.6	1.4	CCn1c(=O)c(=O)n(CC)c2cc(S(=O)(=O)Nc3cccc(OC)c3)ccc21
0.59	1.9	Cc1ccc(C(=O)CCNc2ccc(Br)cc2)o1
1.6	-0.42	CC12CC3(C)CC(C)(C1)CC(C(=O)NCc1ccccn1)(C2)C3
0.68	-0.18	CC1=C(C(=O)OCc2ccccc2)C(c2cccnc2)c2c(n(C)c(=O)n(C)c2=O)N1 (stereo not given)
0.7	-1.4	O=C(Nc1nncs1)c1ccc2c(c1)OCO2
0.83	-1.9	COc1cccc(N2CCN(S(=O)(=O)c3c(C)[nH]c(C)c3C(=O)N3CCCC3)CC2)c1
2.7	-0.84	Cc1cc(C)c(S(=O)(=O)Nc2cccc3nsnc23)c(C)c1
0.03	1.1	CSc1ccccc1OCc1cc(C(=O)N(C)CCc2c(C)n[nH]c2C)no1
0.5	0.03	CC(O)c1nc2ccccc2n1CCOc1ccccc1 (stereo not given)
1.1	-1.2	CC1CCN(CC(=O)Nc2sc3c(c2C#N)CCC3)CC1
0.36	-2.8	CC1CCN(c2nc(-c3ccncc3)nc3ccccc23)CC1
0.7	2.1	Cn1cc(NC(=O)Nc2ccc(C(F)(F)F)cc2)c(C(F)(F)F)n1
0.16	1.2	C/C(=N/NC(=O)c1ccc(NC(=O)c2ccc(F)cc2)cc1)c1ccccc1
0.01	-2.9	C[n+]1cccc(C(=O)NCC2CCCO2)c1 (stereo not given)
0.02	0.47	CC(C)(C)c1ccc(S(=O)(=O)NCc2ccc(C(=O)NCC3CCCO3)cc2)cc1 (stereo not given)
1.4	0.73	O=C(N/N=C/c1ccc(O)cc1)c1cc[n+](Cc2ccccc2)cc1
0.23	0.52	CCOC(=O)c1cn(Cc2ccccc2)nn1
0.63	0.02	CSc1cccc(NC(=O)c2ccccc2N(C)S(C)(=O)=O)c1
1.9	0.66	Cc1cc(=O)c2ccccc2[nH]1
0.34	-1.6	COc1ccc(CN2CCC(n3nccc3NC(=O)c3cccc(F)c3)CC2)cc1O
2.3	0.03	CC(=O)c1sc(NC(=O)c2cccc(C)c2)nc1C
1.4	0.79	CC1(C)CSC(=NCc2ccccc2)N1C(=O)c1cccc([N+](=O)[O-])c1
1.5	1.4	CC(=O)c1cnn(-c2cc(Oc3ccc(F)cc3)ncn2)c1C
1.7	0.11	CCOC(=O)C1(Cc2ccccc2Cl)CCN(C(=O)c2cnccn2)CC1
0.65	-2.1	CCC(NC(=O)c1cc(COc2ccc(F)cc2Cl)on1)c1ccncc1 (stereo not given)

Four consecutive compounds from above:
KCNQ2 pot	KCNQ2 pot baseline	structure
0.46	2.4	CCC(=O)c1ccc(OCC(=O)OCC(=O)N2CCCc3ccccc32)cc1
1.2	-0.47	CC1CCN(C(=O)N[C@@H](Cc2ccccc2)C(=O)O)CC1
1.5	-0.39	Cn1c(SCC(N)=O)nnc1-c1ccc(S(=O)(=O)N2CCCC2)cc1
0.59	0.09	COC(=O)c1ccc(CO/N=C2\CCCc3nonc32)cc1

Record cards, as listed above. Order of values: KCNQ2 pot | KCNQ2 pot baseline
`O=C(N/N=C/c1ccc(O)cc1)c1cc[n+](Cc2ccccc2)cc1` as listed: 1.4 | 0.73
`COc1cccc(N2CCN(S(=O)(=O)c3c(C)[nH]c(C)c3C(=O)N3CCCC3)CC2)c1` as listed: 0.83 | -1.9
`CC(=O)c1cnn(-c2cc(Oc3ccc(F)cc3)ncn2)c1C` as listed: 1.5 | 1.4

Additional entries.
KCNQ2 pot	KCNQ2 pot baseline	structure
0.03	0.4	N#Cc1nc(-c2ccco2)oc1N1CCN(c2ccccc2)CC1
0.09	1.2	COc1nc2ccccc2nc1CCC(=O)O
0.8	-0.03	Cc1sc(NC(=O)Cn2[nH]c(=O)c3ccccc3c2=O)nc1-c1ccccc1
2	0.33	Cn1c(=O)oc2cc(S(=O)(=O)N3CCN(Cc4ccc5c(c4)OCO5)CC3)ccc21
2.2	0.04	CCOC(=O)C1=C(COC(=O)/C=C/c2cccc(OC)c2)NC(=O)NC1C (stereo not given)
0.25	0.92	COc1cccc(OC)c1OCCCCc1c(C)n[nH]c1C
0.11	-0.64	O=C1N/C(=N\S(=O)(=O)Cc2ccccc2)S/C1=C/c1cccc([N+](=O)[O-])c1
0.43	-1.2	COc1ccc(N2C(=O)CCC(C(=O)NCCCN3CCC(C)CC3)C2c2ccc(OC)c(OC)c2)cc1 (stereo not given)
0.08	1	COc1cc(CCC(=O)OCC(=O)Nc2cccc(S(N)(=O)=O)c2)cc(OC)c1OC
0.92	-0.8	Fc1ccc(-n2nnc(-c3ccccc3Br)n2)cc1
0.07	0.5	O=C(CN1CCC(n2nnc3cc(F)ccc32)CC1)NNC(=O)c1ccccc1
14*	0.84*	CSc1nnc(NC(=O)c2nc(S(=O)(=O)Cc3ccccc3)ncc2Cl)s1
1.6	-0.56	CCOC(=O)C1C(c2ccccc2O)NC(=O)NC1(O)C(F)(F)F (stereo not given)
1.5	-0.09	CSc1ccc(/C=C2\NC(=O)NC2=O)cc1
3.6	-0.2	NC(=S)N=Nc1c(O)n(Cc2ccc(Br)cc2)c2ccccc12
2.1	-2	COc1ccc(CCN=C(NS(=O)(=O)c2ccccc2)c2ccccc2)cc1OC
0.02	0.8	Cc1ccc(C(=O)CS(C)(=O)=O)cc1
0.41	-1.4	COc1ccc([C@@H]2[C@@H]3C(=O)N(C(C)(C)C)C(=O)[C@@H]3[C@]3(Cc4ccccc4)C(=O)N(c4cccc(Cl)c4)C(=O)N23)cc1
1.1	0.9	COc1ccc(-c2nc(SC)n(C)c(=O)c2C#N)cc1OC
0.68	1.2	Cc1csc(NC(=O)C(C)N2C(=O)c3ccccc3S2(=O)=O)n1 (stereo not given)
0.59	-0.62	O=C1Cn2c(nc3ccccc32)N1c1ccccc1F
1.7	0.97	CCOC(=O)c1cccc(Nc2ncnc3ccc(C)cc23)c1
1.4	0.19	N/C(=N\OC(=O)CCCOc1ccc(Cl)cc1Cl)c1ccncc1
0.35	-0.97	CC(=O)c1ccc(NC(=O)CSc2nnc(-c3ccoc3C)n2Cc2ccccc2)cc1
2.2	0.96	CC(C)OCCCNC(=O)c1cc(-c2cccs2)nc2ccccc12
0.39	-0.59	O=C(Cc1coc2ccc3ccccc3c12)N1CCCC1
0.35	1.2	O=C(Nc1ccc2oc(=O)ccc2c1)c1ccccc1[N+](=O)[O-]
0.03	-1.1	O=C(O)c1cccc2c1-c1ccccc1/C2=N\Nc1ccccc1

This is a subset; the hit share may differ from the screen's.
